StopGo reporter: FMDV 2A StopGo reporter, luciferase signal | human cells with a luciferase reporter of 2A StopGo recoding; control for the full effect not named in the record | Potency, µM (top dose mostly 57.9 µM), for the others: top-dose signal change, negative = less light | 410,000 tested, 1.2% active; active = well fitted falling curve with a large enough effect; inconclusive = small, poorly fitted or top-dose-only effect; inactive = no such curve, though single readings can be large or run the other way; tested in HEK293T cells; further: on the % scale 0 is the no-effect control and ±100 the full control effect; nearly all actives have a fitted effect of over 45% in size; luciferase light after 4 h
RE007 growth inh: less growth of the S. pombe RE007 Vpr strain. S. pombe RE007 Vpr strain, BacTiter-Glo ATP luminescence, 24 h; control for the full effect not named in the record. Potency, µM (top dose mostly 92.2 µM), inactives show at the top dose activity change, negative = less growth. 360,000 tested, 0.21% active. AID 651644; active = well fitted falling curve with a large enough effect; inconclusive = small, poorly fitted or top-dose-only effect; inactive = no such curve, though single readings can be large or run the other way;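 further: on the % scale 0 is the no-effect control and ±100 the full control effect; nearly all actives have a fitted effect of over 50% in size; the assay follows cell death caused by Vpr and the record does not say whether a fall means rescue or toxicity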
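Fission yeast RE007 carrying one integrated HIV-1 vpr copy, seeded at OD 0.01 in PMG+AL medium with 23 nL pinned compound. Grown 24 h at 30 degrees; viability read by BacTiter-Glo luminescence after 5 min.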
Cruzain Triton: cruzain (T. cruzi) inhibition with detergent | P25779 | Potency, µM, without a hit: max response, negative = inhibition, usual class: inhibitors | 200,000 tested, 0.43% active | purified cruzain, Z-FR-AMC fluorescence, 0.01% Triton; active means well fitted curve in the direction sought with a large enough effect; inconclusive means small, poorly fitted or top-dose-only effect, or another doubt; inactive means no such curve, though single readings can be large; an effect the other way counts as inactive or inconclusive;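 further: plate controls were neutral wells for no effect and buffer without enzyme for full effect; nearly all actives have a fitted effect of over 40% in size; top concentration of the series not given in the record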
Target sequence (P25779 123-467 limits assumed): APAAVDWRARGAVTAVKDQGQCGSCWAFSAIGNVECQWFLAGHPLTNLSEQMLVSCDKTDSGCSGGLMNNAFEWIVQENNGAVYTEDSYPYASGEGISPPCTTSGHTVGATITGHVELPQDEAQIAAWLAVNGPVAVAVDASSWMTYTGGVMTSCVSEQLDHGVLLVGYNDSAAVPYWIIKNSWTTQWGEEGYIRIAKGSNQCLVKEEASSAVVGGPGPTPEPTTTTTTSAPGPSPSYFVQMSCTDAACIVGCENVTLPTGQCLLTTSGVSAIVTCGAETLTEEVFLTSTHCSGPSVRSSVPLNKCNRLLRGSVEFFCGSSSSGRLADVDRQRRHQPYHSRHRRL
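Detergent-containing arm of a paired screen for aggregation-based inhibition: 0.01% Triton X-100 present. Cruzain at 1.5 nM cleaved 2 uM Z-FR-AMC at pH 5.5 with 5 mM DTT; AMC fluorescence gain over 60 s measured activity.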
SARS PLpro yeast: SARS-CoV PLP inhibition in yeast; 330,000 tested, 0.19% active; Potency, µM (top dose mostly 32.9 µM), for the others: at the top dose activity, positive = growth rescue; S. cerevisiae expressing SARS-CoV PLpro, growth rescue; control for the full effect not named in the record; further: 0% is about no effect; nearly all actives have a fitted effect of over 55% in size; growth read by luminescence after 48 h
MARV entry inh: blocks Marburg virus binding to or entry into cells; Marburg virus pseudotyped entry inhibition, cell reporter; control for the full effect not named in the record; about a third of the inactives were read at about 46 µM; Potency, µM (highest dose often 37.8 µM), for inactives: top-dose activity change, negative = inhibition, usual class: inhibitors; 300,000 tested, 1.8% active; AID 540276; active = well fitted inhibition curve with a large enough effect; inconclusive = small, poorly fitted or top-dose-only effect, or effect the other way; inactive = flat fitted curve, though single readings scatter; tested in HEK293 cells; about a fifth of its hits are not listed in these tables; further: on the % scale 0 is the no-effect control and ±100 the full control effect; luciferase read-out
Cruzain noTriton: cruzain (T. cruzi) inhibition without detergent; Potency, µM, inactives show max response, negative = inhibition, usual class: inhibitors; P25779; AID 1476; 200,000 tested, 2.3% active; purified cruzain, Z-FR-AMC fluorescence, no detergent; active means well fitted curve in the direction sought with a large enough effect; inconclusive means small, poorly fitted or top-dose-only effect, or another doubt; inactive means no such curve, though single readings can be large; an effect the other way counts as inactive or inconclusive;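 further: plate controls were enzyme without inhibitor for no effect and buffer without enzyme for full effect; nearly all actives have a fitted effect of over 40% in size; top concentration of the series not given in the record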
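Purified cruzain at 1.5 nM, pre-incubated 15 min with compound at room temperature in 100 mM sodium acetate pH 5.5, 5 mM DTT, 0.00005% Triton X-100. Reaction started with 2 uM Z-FR-AMC; AMC fluorescence increase over 60 s gives rate.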
NS1 function inh: blocks influenza NS1 protein function | 270,000 tested, 0.4% active | AID 2326 | S. cerevisiae slowed by influenza A NS1, growth recovery by OD600 | Potency, µM (series often up to 46.1 µM), inactives show top-dose activity, positive = more growth; further: actives are rising curves; nearly all actives have a fitted effect of over 50% in size
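Compounds were scored for reversing the slow growth caused by influenza A NS1 in S. cerevisiae, measured by optical density at 600 nm. Assay medium contained 2% galactose at pH 6.0; NS1-free yeast of the same strain were the positive control.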
Lassa entry inh: inhibitors of Lassa virus binding or cell entry. Lassa virus pseudotype entry inhibition, cell reporter; control for the full effect not named in the record. Potency, µM (titrated, usually from 37.9 µM), for the others: top-dose activity change, negative = inhibition, actives largely listed as inhibitors. 300,000 tested, 1.2% active. AID 540256; active means well fitted inhibition curve with a large enough effect; inconclusive means small, poorly fitted or top-dose-only effect, or effect the other way; inactive means flat fitted curve, though single readings scatter; tested in HEK293 cells; further: on the % scale 0 is the no-effect control and ±100 the full control effect; nearly all actives have a fitted effect of over 50% in size; luciferase read-out
Active calls of the source: *; ? = inconclusive; / = no result given; & = joins results of further samples; [ ] = dose if it differs, or a comment. Unless noted, the call rests on the fitted dose curve; in most records, active means well fitted rising curve with a large enough effect; inconclusive means small, poorly fitted or top-dose-only effect; inactive means no such curve, though single readings can be large or run the other way. Potency means the concentration at half of the fitted maximal effect.

Fields: StopGo reporter	RE007 growth inh	Cruzain Triton	SARS PLpro yeast	MARV entry inh	Cruzain noTriton	NS1 function inh	Lassa entry inh
1. Cn1c(SCC(=O)Nc2ccc3c(c2)n(C)c(=O)n3C)nnc1-c1ccncc1
→ 11%	-11%	/	1%	3%[46.1 µM]	/	6%	/
2. CC(C)(C)C1(C)OC(=O)C(=Cc2ccc(OCC(=O)Nc3ccccc3)cc2)C(=O)O1 (stereo not given)
→ 29%	0%	0.5%	10%	?	-4%	-14%	10%
3. O=C(NCCN1CCOCC1)c1ccc(CS(=O)(=O)c2ccc(Cl)cc2)o1
→ -2%	14%	3.1%	-16%	10%	-7%	1%	10%
4. CCOC(=O)C1CCN(CC(=O)Nc2ccc(OC)c(S(=O)(=O)N3CCCCC3)c2)CC1
→ -3%	-6%	/	1%	7%	/	/	13%
5. COc1cc(NC(=O)c2cccs2)c(C(=O)OCC(=O)NCc2ccco2)cc1OC
→ ?	-7%	-4.5%	3%	-11%	?	17%	0%
6. Cc1ccc(CNC(=O)CSc2nc3ccsc3c(=O)n2NC(=O)c2ccccc2)cc1
→ 60%[activator]	2%	3.3%	5%	19%	-3%	-10%	9%
7. COc1cccc(C(=O)Nc2nc3c(s2)CN(C)CC3)c1
→ 16%	-10%	-5.1%	9%	29%	-11%	-9%	?
8. O=c1oc(-c2ccc(Br)cc2)nc2ccccc12
→ 58%[activator]	-17%	/	2%	2%	/	-18%	25%
9. CC(=O)Cc1nsc(Nc2ccc3c(c2)OCCO3)n1
→ 78%[activator]	-11%	0.8%	15%	?	-7%	?	21%
10. Cc1cc2c(ncn2C)c(NS(=O)(=O)c2cc(Cl)ccc2Cl)c1C
→ 4%	-28%	-6.9%	1%	-1%	-7%	-8%	18%
11. Fc1ccccc1-c1nc(-c2ccccc2)no1
→ -46%	?	-5.0%	2%	?	11%	4%	?
12. Nc1nc(-c2cccnc2)nn1C(=O)Cc1ccccc1
→ -18%	-10%	-1.6%	0%	0%	-2%	-15%	?
13. CCS(=O)(=O)N1CCC(C(=O)NCc2ccccc2OC)CC1
→ /	0%	4.7%	-1%	0%	0%	-2%	?
14. O=C1OCCC1Sc1nnc(-c2ccccc2Br)n1Cc1ccccc1 (stereo not given)
→ -23%	19%	-0.7%	11%	4%	0%	-11%	6%
15. CC(=O)/C(N=Nc1cc(C)ccc1O)=C(\C)O
→ 30%[activator]	-10%	/	-3%	6%[14.2 µM]	/	-1%	1%
16. CCc1cccc(C)c1NC(=O)c1nc2ccccc2nc1N1CCCCC1
→ -28%	/	0.7%	/	/	7%	/	-23%[46.1 µM]
17. Cc1ccc(-c2nc(CN3C(=O)CN=C(c4ccccc4)c4ccccc43)c(C)o2)cc1
→ -29%	/	-4.1%	/	-23%[46.1 µM]	-2%	/	-10%[46.1 µM]
18. CCCc1cc(=O)oc2c(C)c(OC3CCCCC3=O)ccc12 (stereo not given)
→ -18%	2%	/	0%	/	/	3%	/
19. CN1CCN(c2cc3c(c4c2[nH]c2ccccc24)C(=O)CC(C)(C)C3)CC1
→ -24%	12%	-1.2%	4%	-2%	-3%	-78%	/
20. CCN(CC)C(=O)c1[nH]cnc1C(=O)NCC(=O)OCc1ccccc1
→ -16%	13%	/	0%	/	/	0%	/
21. Cc1cccc(C)c1C(=NCCCN(C)C)c1ccccc1
→ -20%	10%	1.1%	-12%	?	-1%	-7%	?
22. CN1C(C(=O)NCc2ccccc2)CC2Cn3c(nc4cc(Cl)c(Cl)cc43)C21 (stereo not given)
→ -23%	-8%	/	-1%	/	/	7%	/
23. Cc1ccc2nc(-c3ccncc3)c(Nc3ccccc3)n2c1
→ -27%	?	-5.7%	1%	4%&4%	17%	0%	-16%
24. NC(=O)Nn1c(CCC(=O)O)ccc1-c1ccc(F)cc1
→ -16%	-7%	3.8%	?	-26%	0%	?	7%
25. CC(C)OC(=O)c1c(N)n(CC2CCCO2)c2nc3ccccc3nc12 (stereo not given)
→ -28%	-2%	-21%	0%	?	5%	-9%	7%
26. CCSc1nc2ccc(OC)cc2cc1C#N
→ 0%	1%	-1.7%	19%	?	-5%	3%	13%
27. CCN(CCCNC(=O)c1cc2cc3ccc(OC)cc3nc2s1)c1cccc(C)c1
→ 25%	/	-11%	/	-34%[46.1 µM]	?	/	-13%[46.1 µM]
28. COc1ccccc1C(=O)NCCC(=O)N(C)CC(=O)Nc1ccccc1Br
→ -4%	3%	/	0%	11%	/	/	0%
29. CC(C)(C)OC(=O)NCCc1nnc(SCc2ccc(Cl)cc2)o1
→ ?	-2%	-0.6%	-23%	2%	3%	-64%	?
30. Cc1ccc(CSCCNS(=O)(=O)c2ccccc2)cc1
→ -1%	-1%	-3.8%	4%	0%	9%	-11%	-19%
31. O=C(O)c1cc(-c2ccco2)nc2cc3ccccc3cc12
→ 34%[activator]	2%	/	1%	5%[46.1 µM]	/	-3%	4%
32. O=C(NCCCN1CCOCC1)c1ccc2c(c1)N(Cc1cccc(Cl)c1)C(=O)c1ccccc1S2=O (stereo not given)
→ -5%	19%	/	3%	/	/	-8%	/
33. CS(=O)(=O)N1CCN(c2ccc([N+](=O)[O-])c(NCc3ccccc3)c2)CC1
→ -9%	-6%	-4.2%	3%	-21%	?	9%	-21%
34. Cc1cc(C)n2nc3nc4c(cc3c2n1)CCCC4
→ 34%[activator]	-13%	-7.5%	28%	1%	-3%	-20%	2%
35. Cc1ccc(NC(=O)CN(C)S(=O)(=O)c2cccc3nsnc23)cc1Cl
→ ?	1%	-6.5%	-15%	-14%&-14%	-20%	-24%	-14%
36. COCCn1cnnc1SCC(=O)Nc1ccc(Br)cc1F
→ -10%	6%	/	0%	-13%[46.1 µM]	/	1%	8%
37. c1ccc(-n2ncc3c(N4CCN(CCOc5cccc6ccccc56)CC4)ncnc32)cc1
→ ?	11%	4.7%	12%	?	-1%	3%	?
38. CCCCNc1ccc(C(=O)Nc2cccc(C)n2)cc1[N+](=O)[O-]
→ 43%[activator]	9%	-2.3%	-6%	11%	-9%	4%	3%
39. CSc1ccc(CNCC(O)c2ccccc2)cc1 (stereo not given)
→ -4%	-6%	/	1%	15%[46.1 µM]	/	-3%	18%[46.1 µM]
40. Clc1ccc(-c2nnn3c2nc(NCc2ccc4c(c2)OCO4)c2ccccc23)cc1
→ 30%	/	0.2%	/	-1%[46.1 µM]	-7%	/	-7%[46.1 µM]
41. Cc1ccc(N2CC(C(=O)Nc3c4c(nn3C(C)(C)C)CS(=O)(=O)C4)CC2=O)cc1 (stereo not given)
→ -18%	18%	/	-1%	/	/	2%	/
42. CCOc1ccc(CNS(=O)(=O)c2cc(-c3cc(C)no3)ccc2OC)cc1OC
→ 19%	8%	/	17%	?	/	1%	3%[46.1 µM]
43. c1ccc(-c2cc(N3CCCCC3)ncn2)cc1
→ 27%	-27%	-4.8%	-6%	?	-11%	-33%	-15%
44. Cc1cccc(OCc2nnc(SCC(=O)N3CCN(C(=O)c4ccco4)CC3)n2C)c1C
→ -15%	-6%	3.5%	-4%	5%&14%	25%	-6%	-11%
45. O=C(CN1C(=O)NC2(CCOc3ccccc32)C1=O)c1ccc(F)cc1 (stereo not given)
→ -1%	5%	/	2%	0%	/	/	6%
46. Nc1nc(-c2cccnc2)nc2sc3c(c12)CCCC3
→ 1%	-20%	/	4%	?	/	-36%	?
47. CC(C)(C)NC(=O)C(c1ccco1)N(Cc1ccc2c(c1)OCO2)C(=O)Cn1nnc2ccccc21 (stereo not given)
→ 37%[activator]	-16%	2.0%	-2%	5%&11%	1%	-17%	?
48. CCOC(=O)N1CCN(C(=O)CNC(=O)c2nn(-c3ccc(OC)c(OC)c3)c(=O)c3ccccc23)CC1
→ -2%	17%	/	0%	-12%[46.1 µM]	/	6%	15%
49. O=C(CN1CCN(Cc2ccccc2)CC1)N1CCCc2ccccc21
→ -19%	5%	/	1%	/	/	4%	/
50. COc1ccc(/C=C/c2ccccc2)cc1[C@H]1[C@H]2C=CC[C@@H](C)[C@@H]2C(=O)N1Cc1ccccc1
→ -3%	0%	/	0%	/	/	1%	/
51. O=C(O)CSc1nc2ccc(Cl)cc2[nH]1
→ -8%	-10%	0.0%	0%	?	-3%	-3%	8%
52. CCC(=O)N1CCc2cc(Br)cc(S(=O)(=O)N3CCCC(C(=O)Nc4cccc(Cl)c4C)C3)c21 (stereo not given)
→ -24%	/	-2.6%	/	26%[46.1 µM]	-10%	/	-17%[46.1 µM]
53. Cc1cc(C)n2nc(SCc3cc(=O)oc4cc(O)ccc34)nc2n1
→ /	/	-5.8%	1%	-3%	-7%	2%	/
54. Cc1nnc(SCCN2CCOCC2)n1-c1cccc(Cl)c1
→ 13%	10%	10%	2%	4%	1%	-2%	-27%
55. COc1ccc(/C=N/NC(=O)CNC(=O)COc2ccccc2)cc1
→ -17%	-5%	-1.7%	-8%	?	-1%	-1%	14%
56. CC(Oc1ccc(Br)cc1)C(=O)Nn1c(=S)[nH]c2ncccc2c1=O (stereo not given)
→ /	/	-3.6%	3%	-2%	-10%	8%	/
57. O=c1c2ccccc2nc(-c2ccoc2)n1-c1ccccc1
→ -16%	4%	-1.6%	4%	0%	?	-71%	-9%
58. Cc1ccc(CN2CCNC(=O)C2CC(=O)NCC(F)(F)F)o1 (stereo not given)
→ 26%	0%	/	-1%	12%[46.1 µM]	/	3%	-2%[46.1 µM]
59. Cc1nn2c(N3CCOCC3)cc(C(C)(C)C)nc2c1-c1ccc(Cl)cc1
→ -3%	0%	/	2%	?	/	3%	-10%[46.1 µM]
60. Cc1ccc(Cl)cc1OCC(=O)NCCOC(=O)Nc1sc(=S)n(C)c1C
→ 0%	16%	-2.5%	14%	-27%	5%	0%	-20%
